# HPGD inh = inhibitors of human 15-hydroxyprostaglandin dehydrogenase (HPGD) | P15428 | purified HPGD, NADH fluorescence kinetic, PGE2 substrate | Potency, µM, for inactives: at the top dose activity change, negative = inhibition, actives largely listed as inhibitors | actives 4.3% (n = 150,000) | AID 894; active = well fitted inhibition curve with a large enough effect (not every such curve was filed as active); inconclusive = small, poorly fitted or top-dose-only effect, or another doubt; inactive = no such curve, though single readings can be large or run the other way;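 further: top concentration of the series not given in the record; plate controls included wells without enzyme; inactives centre near -10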
# Target sequence (P15428 whole entry, looked up): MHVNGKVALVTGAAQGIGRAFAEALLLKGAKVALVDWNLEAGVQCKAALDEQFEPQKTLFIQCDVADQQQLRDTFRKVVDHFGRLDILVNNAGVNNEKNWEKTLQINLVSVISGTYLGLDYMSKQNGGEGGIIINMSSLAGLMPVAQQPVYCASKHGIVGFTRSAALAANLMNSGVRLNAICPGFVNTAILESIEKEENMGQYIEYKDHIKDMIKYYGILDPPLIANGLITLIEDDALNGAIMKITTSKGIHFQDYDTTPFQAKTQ
#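 NADH formation kinetics: reaction with 30 uM PGE2 and 1 mM NAD+ (final), 20 nM enzyme, Tris-HCl pH 8 with Tween 20, after 15 min compound preincubation at room temperature. Fluorescence change, last versus first of five reads.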
# Starred values were filed as active, the others as inactive; ? = inconclusive; & = joins results of further samples. On the % scale 0 is the no-effect control and ±100 the full control effect; potency means the concentration at half of the fitted maximal effect. Some of the compounds tested, so the mix of outcomes need not match the whole.
# The first 4 records as a preview:
HPGD inh | Compound
? | Cc1cc(C)c2c(=O)n(CC(=O)NCCCN3CCOCC3)sc2n1
-3.8% | Cc1ccccc1S(=O)(=O)Cc1ccc(C(=O)N2CCN(C3CCCCC3)CC2)o1
-11.4% | CC1CCCCN1c1cc(C#N)c(C#N)cc1[N+](=O)[O-] (centres undefined)
-7.5% | O=C1CC(c2ccc(Cl)cc2)SC(N(c2ccccc2)c2ccccc2)=N1 (centres undefined)

# The list itself, previewed entries included:
HPGD inh | Compound
? | Cc1cc(C)c2c(=O)n(CC(=O)NCCCN3CCOCC3)sc2n1
-3.8% | Cc1ccccc1S(=O)(=O)Cc1ccc(C(=O)N2CCN(C3CCCCC3)CC2)o1
-11.4% | CC1CCCCN1c1cc(C#N)c(C#N)cc1[N+](=O)[O-] (centres undefined)
-7.5% | O=C1CC(c2ccc(Cl)cc2)SC(N(c2ccccc2)c2ccccc2)=N1 (centres undefined)
-4.1% | Cc1cc(C)cc(CC2CC(=O)N(c3ccc4c(c3)OCCO4)C2=O)c1 (centres undefined)
? | O=C(Cn1c(=O)n(CCCCC(=O)NC2CCCC2)c(=O)c2ccccc21)NCCC1=CCCCC1
-15.0% | CCC(CC)c1nnc(NC(=O)c2c(C)nn(Cc3ccccc3Cl)c2C)s1
-4.5% | CC1CC(C)CN(C2CCN(Cc3cccnc3)CC2)C1 (centres undefined)
-6.2% | c1cncc(-c2nnc(C3CCCCC3)o2)c1
-12.8% | O=C(CCN1c2ccccc2Sc2ccccc21)OCc1nnc(-c2ccccc2)o1
-22.4% | Cc1nc(CSc2nnc3scc(-c4ccc(Cl)cc4)n23)cs1
-15.9% | CCOC(=O)c1[nH]c(C)c(/C(O)=C2\C(=O)C(=O)N(CCN(C)C)C2c2cccc(OC)c2OC)c1C (centres undefined)
-0.4% | CCCCNCCOCCOc1ccc(C)cc1Br
-19.7% | O=C(NC(=S)NCC1COc2ccccc2O1)c1ccccc1 (centres undefined)
-19.1% | COc1cc(O)c2c(=O)c(O)c(-c3ccc(O)c(O)c3)oc2c1
-25.4% | Cc1nc(-n2[nH]c3c(c2=O)CCCC3)[nH]c(=O)c1Cc1ccccc1
-13.2% | COCc1cc(C)nc2sc3c(=O)n(Cc4ccco4)nnc3c12
-5.6% | COc1ccc(NC(=O)/C(C#N)=C\C=C\c2ccco2)cc1
-12.2% | O=c1o[nH]c(-c2ccccc2)c1C1=NCCCCC1
-21.0% | CC(C)(Oc1ccc(Cl)cc1)C(=O)NCc1ccco1
-23.3% | Clc1ccccc1-c1nnc2sc(-c3ccco3)nn12
-10.8% | CCN(CC)CC(O)Cn1c2ccccc2c2ccccc21 (centres undefined)
? | FC(F)(F)c1nc2ccccc2n2c(-c3ccc(Cl)cc3)nnc12
-18.4% | O=S(=O)(c1ccccc1)c1nc(-c2ccccc2)oc1NCc1cccnc1
-10.1% | CCn1cc(C(=O)NCCN(C)CCc2ccccc2)c(=O)c2cc(S(=O)(=O)N(C)C)ccc21
-9.9% | CCC(=O)Nc1ccc(NC(=O)C23CC4CC(CC(C4)C2)C3)cn1
-2.7% | COc1ccc(NC(=O)Nc2nnc(N3CCCCC3C)s2)cc1OC (centres undefined)
? | CC1(C)Cc2c(c(N3CCOCC3)nc3sc4c(=O)[nH]cnc4c23)CS1
-8.8% | CCN(CC)c1ccc(C2C3CCCCC3(O)CCN2CC(=O)Nc2ccccc2)cc1 (centres undefined)
-29.1% | N#Cc1cc2c(nc1SCC(=O)N1CCCCC1)CCCC2
14.1µM* | O=C(CC(c1ccccc1)c1cc(Br)ccc1O)NCCN1CCOCC1 (centres undefined)
-6.9% | CCC(C)Sc1nc(O)c(Cc2ccccc2)c(=O)[nH]1 (centres undefined)
-4.1% | N#CCCS(=O)(=O)c1ccccc1
-1.6% | Oc1ccc(/C=N/Nc2nc(-c3ccc(Cl)cc3)cc(C(F)(F)F)n2)cc1
-8.2% | O=[N+]([O-])c1ccc(Cl)cc1Sc1cccc2cccnc12
-18.2% | Cc1ccc(Oc2cc(NC(=O)CCCn3nc(C)c([N+](=O)[O-])c3C)cc([N+](=O)[O-])c2)cc1
-4.4% | CCn1cc(C(=O)NC2CCCCC2)c(=O)c2ccc(C)nc21
-5.5% | CCC[C@@H]1C[C@@]1(CCC)C(NC(=O)c1ccccc1)c1cccc(Cl)c1 (some centres undefined)
-10.1% | Cc1cc(NC(=O)c2c(Cl)cnn2C)no1
-11.1% | CC1CN(c2cc(=O)n(Cc3ccc(F)cc3)c(=O)[nH]2)CC(C)O1 (centres undefined)

# Another view of some results above.
SMILES,HPGD inh
COc1ccc(NC(=O)Nc2nnc(N3CCCCC3C)s2)cc1OC (centres undefined),-2.7%
CC1(C)Cc2c(c(N3CCOCC3)nc3sc4c(=O)[nH]cnc4c23)CS1,?
CCN(CC)c1ccc(C2C3CCCCC3(O)CCN2CC(=O)Nc2ccccc2)cc1 (centres undefined),-8.8%
N#Cc1cc2c(nc1SCC(=O)N1CCCCC1)CCCC2,-29.1%
O=C(CC(c1ccccc1)c1cc(Br)ccc1O)NCCN1CCOCC1 (centres undefined),14.1µM*
CCC(C)Sc1nc(O)c(Cc2ccccc2)c(=O)[nH]1 (centres undefined),-6.9%

# Remaining list, next part:
HPGD inh | Compound
-11.8% | CCC(=O)NC(=S)Nc1ccc(OC)cc1OC
? | Cc1ccc(N(Cc2cc3cc(C)ccc3[nH]c2=O)C(=O)c2cccs2)cc1
-20.8% | CCOC(=O)C1=C(C)Nc2nc(SC)nn2C1c1ccc(C(=O)OC)cc1 (centres undefined)
? | CCCOC(=O)c1ccc(NC(=O)C2C3C=CC(O3)C2C(=O)O)cc1 (centres undefined)
28.2µM* | COc1ccccc1NC(=S)NC(=O)/C=C/c1ccco1
-9.3% | COc1ccc(C2C(C(=O)Nc3ccccc3)=C(C)N=C3SCC(=O)N32)cc1 (centres undefined)
-6.1% | CN(C)c1cc[n+](Cc2ccccc2)cc1
0.3% | Cc1nc2nc3c(c(=O)n2[nH]1)CCC3
-2.3% | CC1CN(c2cc(=O)n(-c3ccccc3)c(=O)[nH]2)CC(C)O1 (centres undefined)
-19.4% | Cc1nc(CN2CCN(C(=O)c3ccc(C(C)(C)C)cc3)CC2)cs1
2.2%&-2.2% | Cc1nc2nc[nH]n2c(=O)c1NC(=O)CC12CC3CC(CC(C3)C1)C2
-3.4% | O=C(NC1CCCCC1)C1CC(O)CN1C(=O)OCc1ccccc1 (centres undefined)
-0.3% | O=C(NC(c1ccccc1)c1ccccc1)C1CCCN(S(=O)(=O)c2cnc[nH]2)C1 (centres undefined)
-26.5% | O=C(NNc1ccccc1Br)C(=O)n1ccc2ccccc21
? | Cc1ccn2c(-c3csc(NCc4ccccc4)n3)c(C)nc2c1
? | COc1ccc(-c2[nH]c(-c3ccc4c(c3)OCO4)nc2-c2ccccc2)cc1
-12.8% | COC(=O)CSc1nnc(-c2ccc(OC)cc2OC)o1
-1.1% | CC1C/C(=N/O)C(C)CN1 (centres undefined)
-17.4% | CC1Cc2nc(SCC(=O)Nc3ccc4c(c3)OCCO4)n(C)c(=O)c2S1 (centres undefined)
-11.8% | CCOC(=O)c1c(C)c(C)n(Cc2ccc(OC)c(OC)c2)c1C
-8.8% | CCCCc1nnc(NC(=O)CCSc2ccccc2)s1
-12.7% | Cc1cccc(OC(C)C(=O)N(Cc2cccs2)C2CCS(=O)(=O)C2)c1C (centres undefined)
-3.3% | Cc1ccccc1C1NC(=O)Cc2ccccc21 (centres undefined)
-7.0% | O=C(c1ccco1)N1CCN(C(c2ccc(F)cc2)c2nnnn2CC2CCCO2)CC1 (centres undefined)
-7.8% | O=C(CCC(=O)N1CCN(S(=O)(=O)c2ccccc2)CC1)c1cccs1
-18.6% | COc1cc(/C=C/C(=O)c2c(O)ccc3c(C)cc(=O)oc23)ccc1O
-5.2% | CCc1nnc(NC(=O)C2CCN(C(=O)NC3CCCCC3)CC2)s1
-12.8% | COc1ccc(Nc2nc(C(=O)NCCCN3CCOCC3)cs2)cc1
-24.8% | N#C/C(=C/c1cc(Br)cs1)C(=O)NCC1CCCO1 (centres undefined)
-17.4% | Cc1nn(Cc2ccccc2Cl)c(C)c1NC(=O)c1nc2ncccn2n1
-21.4% | O=C(NC1CCCCC1)c1cccnc1C(=O)O
-2.3%&-0.7%&-3.8% | COC(=O)N1C(C)=Cc2ccccc2C1CC(C)=O (centres undefined)
-2.3% | C/C(Cc1ccccc1)=N\NC(=O)CNC(=O)c1ccc(C(C)(C)C)cc1
? | Nc1nc(-c2ccc3c(c2)CCCC3)cs1
-9.8% | O=C(C/C=N/OCc1c(Cl)cccc1Cl)c1cnc(-c2ccccc2)s1
-10.4% | COc1ccc(CCNC(=O)c2ccc(CNS(=O)(=O)c3ccc(C(C)(C)C)cc3)cc2)cc1OC
-3.8% | COc1ccccc1N1CCN(C(=O)CCCn2c(=O)[nH]c3ccsc3c2=O)CC1
-3.4% | CCOC(=O)N1CCC(N(CCOC)C(=O)Nc2ccc(C)c(C)c2)CC1
-4.0% | COc1ccc(S(=O)(=O)N(CC(=O)N2CCOCC2)c2cc(Cl)ccc2OC)cc1OC
-5.0% | Cc1ccc(CC23CN4CCN(CC(C4)C2O)C3)c(C)c1 (centres undefined)
-8.9% | Cc1ccccc1OCC(=O)Nc1cc(Cl)ccc1Oc1ccccc1
15.8µM* | Cn1cccc1CC(=O)N/N=C/C=C/c1ccco1
-3.6% | O=C(C(c1ccccc1)c1ccccc1)N(Cc1ccco1)C1CCS(=O)(=O)C1 (centres undefined)
? | N=c1oc2ccc3ccccc3c2cc1-c1nnc2n1CCCCC2
? | CCCn1c(NC(=O)c2ccc(C)cc2)nc2ccccc21
2.6% | O=C(CNC(=O)C12CC3CC(CC(C3)C1)C2)N1CCN(S(=O)(=O)c2cccs2)CC1
-25.7% | O=C(OCc1ccccc1)C1=[N+]([O-])OC(C(=O)OCc2ccccc2)C1c1c[nH]c2ccccc12 (centres undefined)
? | COc1ccc(N2C3=C(CC4=C2CC(C)(C)CC4=O)C(=O)CC(C)(C)C3)cc1
-4.5% | COc1cc(NC(=S)NC2CC2)c(OC)cc1Cl
-5.1% | COc1ccccc1CN1CCC2(CC1)CCN(C(=O)c1cccn1C)CC2
-3.7% | Cc1noc(C)c1S(=O)(=O)N(CC(=O)NCc1ccc(Cl)cc1)c1ccc2c(c1)OCO2
-12.2% | CC(=O)Nc1ccc(C(=O)N/N=C(\C)CC(=O)Nc2ccc(OCc3ccccc3)cc2)cc1
-4.2% | Cc1nc(NC(=O)c2ccc(F)cc2)nc2cc3c(cc12)OCO3
-24.8% | N#Cc1c(-c2ccccc2)nc(-c2ccccc2)nc1N1CCOCC1
-2.0% | CC(C)OC(=O)/C(=C/c1ccc(Br)cc1)NC(=O)c1ccco1
-29.5% | CCCCn1nc2cc(C(=O)NCCc3cccs3)ccc2c1OCC
-1.9% | O=C(Nc1ccc(N2CCN(c3ccc(O)cc3)CC2)cc1)Oc1ccccc1
-11.4% | C=C(C)[C@]12C[C@@H](C)[C@@]34OC(Cc5ccccc5)(O[C@@H]1[C@@H]3C=C(COC(=O)Cc1cc(OC)c(O)cc1I)C[C@]1(O)C(=O)C(C)=C[C@@H]41)O2
2.2% | CCOc1ccc(NC(=O)CCN2CCN(c3ccccc3F)CC2)cc1
-16.0% | COc1ccc(/C=C/C(=O)NCc2cn(C)nc2C)cc1COc1ccc(Br)cc1

# (cont.)
HPGD inh | Compound
28.2µM* | Nc1c(C(=O)C2CC2)sc2nc(-c3ccccc3)cc(C(F)(F)F)c12
-3.8% | O=C(C1CCN(Cc2ccccc2)CC1)N1CCN(C/C=C/c2ccccc2)CC1
-6.2% | Fc1ccc(NC(=S)NC23CN4CN(CN(C4)C2)C3)cc1
-5.6% | Cc1ccc2nc(/C(C#N)=C\c3ccc(OC(=O)c4cccs4)cc3)[nH]c2c1
-14.8% | COc1ccc(C(C)n2c(C)c3c(C)nnc(C)c3c2C)cc1 (centres undefined)
-5.5% | CCCCn1nnnc1SCC(=O)N(CC)CC
-10.7% | CCN(CC)c1ccc(C2C(C(=O)OCCOC)=C(C)NC3=C2C(=O)CC(C)(C)C3)cc1 (centres undefined)
? | Cc1ccc(C(=O)Nc2sc(Cc3ccc4c(c3)OCO4)c(C)c2C(N)=O)cc1
? | COc1ccc2oc(-c3ccccc3)c(C(=O)N3CCOCC3)c2c1
-1.7% | O=C(NCCO)C1(c2ccc(Cl)cc2)CCCC1
-9.0% | CN(C)CCCN(C(=O)c1ccc2c(c1)CCCC2)c1nc2ccc(F)cc2s1
-6.8% | CCOc1ccc(NC(=O)COC(=O)c2ccc3c(c2)C(=O)N(CCc2ccccc2)C3=O)cc1
-7.7% | O=c1c2ccccc2nc(-c2ccco2)n1/N=C/c1ccco1
-13.1% | COc1cc2c(cc1/C=C1/NC(=O)N(c3ccccc3)C1=O)OCO2
? | CCOC(=O)c1cc(NC(=O)c2ccc(Cl)cc2)c(=O)n2c1oc1ccc(Cl)cc12
-5.4% | Cc1cc(Nc2ccc(Br)cc2F)n2ncnc2n1
-11.4% | COc1cc(C)nc(N2CCCC(C(=O)Nc3cccc(Cl)c3C)C2)n1 (centres undefined)
-12.0% | COc1cccc(N(CC(=O)Nc2cccc(F)c2)S(C)(=O)=O)c1
-3.8% | O=C(Nc1ccncc1)C1(c2ccccc2)CCCC1
-15.5% | CCOC(=O)N1CCN(C(=O)C2CC(=O)N(c3ccc(OC)cc3)C2c2ccc(OC)cc2)CC1 (centres undefined)
-3.9% | CCn1c(CNC(=O)c2cccs2)nnc1SCC(=O)Nc1ccc(Cl)cc1
-13.8% | COCCn1cc(C(=O)NCc2cccs2)c2c3ccccc3n(C)c2c1=O
-1.2% | Cc1cccc(NC(=O)CSc2nnc(Cn3cnc4ccccc43)o2)c1
1.8% | CCOC(=O)C1CCCN(C(=O)CN2CCN(Cc3ccc(Cl)cc3)C2=O)C1 (centres undefined)
-1.6% | O=C(C1CCC(Cn2c(=O)[nH]c3ccccc3c2=O)CC1)N1CCN(c2ccccc2)CC1 (centres undefined)
